# Bioassay records: PubChem, National Center for Advancing Translational Sciences (NCATS)
# Vaccinia mCherry: vaccinia inhibition (mCherry reporter); Vaccinia virus mCherry reporter infection, fluorescence; about a quarter of the inactives have no number; Potency, µM (series often up to 36.5 µM), for inactives: top-dose activity change, negative = inhibition, usual class: inhibitors; 310,000 compounds, 0.63% hits; active = well fitted inhibition curve with a large enough effect; inconclusive = small, poorly fitted or top-dose-only effect; inactive = no such curve, though single readings can be large or run the other way; tested in A549 cells; note: nearly all actives have a fitted effect of over 35% in size; inactives centre near -10
# Vaccinia Venus: vaccinia inhibition (Venus reporter); Vaccinia virus Venus reporter expression, fluorescence; Potency, µM (titrated, usually from 36.5 µM), without a hit: top-dose activity change, negative = inhibition, usual class: inhibitors; 330,000 compounds, 0.46% hits; AID 720580; active means well fitted inhibition curve with a large enough effect; inconclusive means small, poorly fitted or top-dose-only effect; inactive means no such curve, though single readings can be large or run the other way; tested in A549 cells; note: nearly all actives have a fitted effect of over 30% in size; inactives centre near -10
# * = called active by the depositor; i = inactive; ? = inconclusive; · = not tested or not shown; [ ] = another dose, or the depositor's remark. % is set by controls: 0 for no effect and ±100 for the full control effect; potency is the fitted concentration of half-maximal effect.
smiles,Vaccinia Venus,Vaccinia mCherry
Cc1cc(Nc2cccc(Cl)c2)nc2ccc(NC(=O)Cc3c(F)cccc3Cl)cc12,-18%,-10%
O=C(CSc1nc(-c2ccccc2)no1)N1CCCCC1,2%,-1%
CCc1ccc(CNC(=O)CCCn2ccc3cc(S(=O)(=O)N4CCCC4)ccc32)cc1,?,?
CCOc1ccc(S(=O)(=O)N2CCN(CC)CC2)cc1NC(=O)c1ccccc1F,-25%,-21%
COc1ccccc1NC(=O)C1=C(C)Nc2nc(CCCO)nn2C1c1ccc2c(c1)OCO2 (stereo not drawn),2%,·
CC(=O)N1CCCN(Cc2nc(C3(c4ccc(C)cc4)CCCC3)no2)CC1,-13%,i
CC(C)C[C@H]1CN(CCCC[C@@H]2CNC(=O)C(=O)N2CC2CCCCC2)C(=O)C(=O)N1CCC1CCCCC1,-1%,3%
Cc1ccc(C(CC(=O)NCC2(c3ccccc3)CCCC2)c2ccccc2)c(O)c1 (stereo not drawn),-24%,-15%
Cn1c(C=O)c(-c2ccc3c(c2)OCCO3)c2ccccc21,-22%,?
Cc1cccc(OCCCC(=O)Nc2ccc(S(=O)(=O)N3CCCC3)cc2)c1,?,?
Clc1ccc(Nc2ccccc2)nn1,-3%,-6%
CN(C(=O)COC(=O)c1ccc(C(C)(C)C)cc1)C1CCS(=O)(=O)C1 (stereo not drawn),-13%,-14%

# Some values from the entries so far:
# `Cc1cc(Nc2cccc(Cl)c2)nc2ccc(NC(=O)Cc3c(F)cccc3Cl)cc12` in Vaccinia mCherry: -10%
# `O=C(CSc1nc(-c2ccccc2)no1)N1CCCCC1` in Vaccinia mCherry: -1%
# `Clc1ccc(Nc2ccccc2)nn1` in Vaccinia mCherry: -6%
# `CC(=O)N1CCCN(Cc2nc(C3(c4ccc(C)cc4)CCCC3)no2)CC1` in Vaccinia Venus: -13%

# Going on with the list.
smiles,Vaccinia Venus,Vaccinia mCherry
N#C/C(=C\N1CCOCC1)C(N)=O,-9%,i
Nc1cc(-c2ccccc2)n2c(n1)nc1ccccc12,-21%,-3%
CC(=O)c1cc(Cl)ccc1OC(=O)c1ccco1,-7%,i
O=C(Nc1ccccc1)c1cc(C2CCCCN2C(=O)c2ccccc2)on1 (stereo not drawn),-21%,i
N#Cc1nc(COc2ccccc2)oc1N1CCCCCC1,1%,i
OC(COc1ccc(-c2ccccc2)cc1)CN1CCCCC1 (stereo not drawn),-13%,-8%
O=C(NCc1ccccc1)C1=C[C@@H](c2csc3ccccc23)C[C@@H](OCCCCO)O1,-19%,i
CCOC(=O)c1cc(-c2ccccc2C)nn1CC1CC(c2cccnc2)=NO1 (stereo not drawn),-18%,i
O=C1CCC([N+](=O)[O-])C(c2ccc(Br)cc2)N1 (stereo not drawn),2%,1%
COc1ccc(C(=O)NCCn2cc(SCC(=O)N3CCOCC3)c3ccccc32)cc1,-4%,-13%
CC(=O)Nc1ccc(NC(=O)CSc2nnc(-c3ccccc3)n2Cc2ccc3c(c2)OCO3)cc1,-6%,i
CN(Cc1ccccc1)C(=O)C1CCN(Cc2cc3ccccc3n2Cc2ccccc2)CC1,-8%,-17%
O=[N+]([O-])c1ccccc1Oc1cnc2ccccc2n1,-22%,-26%
CCOC(=O)c1c(NC(=O)Cn2nc(C(F)(F)F)cc2C)sc(C)c1C,-8%,-6%
CC(=O)N1CCN(Cc2cc(=O)oc3cc(C)c(C)cc23)CC1,-3%,9%
Cc1ccc(-c2n[nH]c(=O)c3ccccc23)cc1S(N)(=O)=O,-15%,-22%
Cc1cc(C)cc(N(CC(=O)NC2CCCC2)C(=O)c2csnn2)c1,-4%,0%
O=C1CC(=O)NC(SCC(=O)Nc2ccccc2[N+](=O)[O-])=N1,9%,-4%
CC1Cc2ccccc2N1C(=O)CSc1ncccn1 (stereo not drawn),3%,i
CC(C)(C)C(=O)Nc1ccc(C(=O)OC2CCCCC2)cc1,-5%,-10%
COc1cc(CCCN2CCNC[C@H]2Cc2cccc3ccccc23)cc(OC)c1OC,-14%,-7%
C=CCNC(=O)CSc1cc([N+](=O)[O-])cc(S(=O)(=O)Cc2ccccc2)c1,-9%,i
C/C(=N\NC1=NCCN1)c1ccc(N)c([N+](=O)[O-])c1,-2%,-10%
O=C(NCCCN1CCOCC1)c1cc(Cl)ccc1OCc1ccccc1,-11%,-7%
CCOc1cc2c(C#N)c(N3CCNCC3)nc(N)c2c(N)n1,-10%,-13%
O=C(C(Sc1ccccc1)c1ccccc1)N1CCOCC1 (stereo not drawn),-9%,i
Cc1cc(NC(=O)c2cccc(S(=O)(=O)N3CCCC3)c2)no1,-13%,-12%
CC(=O)C1=C(C)NC(=O)NC1c1cc(Br)ccc1OCC#N (stereo not drawn),-11%,-7%
Cc1ccsc1/C=C1\SC(N2CC(C)OC(C)C2)=NC1=O (stereo not drawn),-15%,-5%
Fc1ccc(/C=C/c2nccc3ccccc23)cc1,-24%,?
Cn1cc(Cl)c(C(=O)NC(=S)Nc2sc3c(c2C#N)CCCCC3)n1,2%,-8%
Cc1ccccc1Nc1nn2c(=O)c3ccc(C(=O)NCC(C)c4ccccc4)cc3nc2s1 (stereo not drawn),-21%,-30%
CCC(=O)Oc1oc(-c2ccccc2)nc1C=Nc1ccc(C)cc1,-3%,i
Cc1nn(CC(=O)N2CCN(C)CC2)c(=O)c2ccccc12,-11%,-1%
Cc1c(Cl)cccc1NC(=O)Nc1ccc(C(N)=O)cc1,-9%,-5%
CN(Cc1cccs1)C(=O)CN1C(=O)c2ccccc2S1(=O)=O,1%,-6%
CCOC(=O)c1cnn(-c2cccc(F)c2)c1C1CCNCC1,-11%,-5%
CN(C(=O)CC1C(=O)NCCN1Cc1ccoc1)C1CCOCC1 (stereo not drawn),9%,i
CC(=O)Nc1ccccc1NC(=O)C/C(C)=N/NC(=O)C1CCCCC1,0%,-13%
CC1CCCC(C)N1C(=O)COC(=O)CNC(=O)c1ccccc1 (stereo not drawn),-5%,i
CCOC(=O)c1c(C)[nH]c(C(=O)OCc2ccc([N+](=O)[O-])cc2)c1C,-17%,-2%
CCCNC(=O)c1ccc2c(c1)ncn2-c1cc(C)cc(C)c1,-16%,i
CC(C)[C@H](NC(=O)OC(C)(C)C)c1cc(C(=O)NCCO)c(N)s1,-4%,i
OC1COC(OCc2ccccc2)C(O)C1O (stereo not drawn),1%,-20%
CN(Cc1ccccc1)C(=O)c1[nH]cnc1C(=O)NCc1ccc(CNC(=O)OC(C)(C)C)cc1,-16%,-7%
O=C(Cc1ccc(Br)cc1)N1CCN(c2ccccc2O)CC1,?,-23%
CCOCCN(C(=O)COC)c1cccc(OC)c1,-3%,-3%
CN(C(=O)c1ccc(OC2CCN(CCc3ccccc3)CC2)cc1)C1CCOC1 (stereo not drawn),-3%,?
O=C1Nc2c(Cl)cccc2C1=O,6%,17%
COc1ccc(S(=O)(=O)N2CC(C)N(C(=O)N3CCOCC3)C2)cc1 (stereo not drawn),-4%,8%
OC(CNCc1ccco1)COc1ccccc1 (stereo not drawn),-11%,-3%
CCCCCC(O)C=CC1C(O)CC(O)C1CC=CCCCC(=O)O (stereo not drawn),7%,-11%
COc1ccc(NC(=O)CN2C(=O)COc3ccc(S(=O)(=O)NC4CCCC4)cc32)cc1OC,-3%,-3%
CSc1ccc(/C=C(\NC(=O)c2ccccc2)C(=O)NCCN2CCOCC2)cc1,-6%,-11%
CCOc1cc(N2CCOCC2)c(OCC)cc1NC(=O)COC(=O)c1cc2ccccc2cc1O,-4%,-20%
NC(=O)c1ccc(NC(=O)Cc2csc(-c3ccccc3)n2)cc1,-7%,i
CN(C(=O)Cc1ccc(Cl)c(Cl)c1)[C@H](CN1CCCC1)c1ccccc1,?,?
COc1ccccc1N1C(=O)C2C(C(=O)c3ccccc3)=NN(c3ccc(C)cc3)C2C1=O (stereo not drawn),22%,i
C[C@@H](CC(=O)O)[C@@H](N)C(=O)O,-7%,i
COc1ccc(CCCC(=O)NCc2ccccc2)cc1C,-27%,-23%

# Brought forward from above: 4 compounds, followed by the next part.
smiles,Vaccinia Venus,Vaccinia mCherry
CN(C(=O)Cc1ccc(Cl)c(Cl)c1)[C@H](CN1CCCC1)c1ccccc1,?,?
COc1ccccc1N1C(=O)C2C(C(=O)c3ccccc3)=NN(c3ccc(C)cc3)C2C1=O (stereo not drawn),22%,i
C[C@@H](CC(=O)O)[C@@H](N)C(=O)O,-7%,i
COc1ccc(CCCC(=O)NCc2ccccc2)cc1C,-27%,-23%
Cc1nn(-c2ccccc2)c(N2CCCC2)c1/C=N/NC(=O)c1cc(-c2cccnc2)nc2ccccc12,?,?
Cc1ccc2cc(CNCCc3ccccc3C)c(=O)[nH]c2c1,-5%,i
COC(=O)c1ccc(C(NC(=O)OCc2ccccc2)/C(C)=C/[C@@H](C)C(=O)NCc2ccc(OC)c(OC)c2)cc1 (stereo partly drawn),-8%,-11%
COc1ccc(NC(=O)N2CCCC2C(=O)NC2CCCC2)cc1 (stereo not drawn),0%,-8%
C1CSC2(N1)C1CC3CC2CC(C1)C31NCCS1 (stereo not drawn),-5%,-4%[1.46 µM]
Cc1cccc(N(C)C(=O)CCS(=O)(=O)c2cccc3nonc23)c1,-11%,-13%
COc1cc(C(=O)N/N=C/c2cc([N+](=O)[O-])cs2)cc(OC)c1OC,?,-22%
COc1ccc(CNC(=O)C(=O)NCC2OCCN2S(=O)(=O)c2ccc(OC)c(OC)c2)cc1 (stereo not drawn),-24%,-13%
O=c1c2sc3ccccc3c2n(Cc2ccccc2F)c(=O)n1Cc1ccccc1,-20%,-10%
CCOc1ccc(C(=O)NCCN2CCCCC2)c(OCC)c1,-3%,-25%
Fc1ccc(Cc2cn3cc(-c4ccccc4)nc3s2)cc1,-9%,-7%
O=C(c1ccc2c(c1)N(Cc1cccc(Cl)c1)C(=O)c1ccccc1S2=O)N1CCN(c2cccc(C(F)(F)F)c2)CC1 (stereo not drawn),-24%,?

# The closing 2 compounds of the part before are carried over, then new ones follow:
smiles,Vaccinia Venus,Vaccinia mCherry
Fc1ccc(Cc2cn3cc(-c4ccccc4)nc3s2)cc1,-9%,-7%
O=C(c1ccc2c(c1)N(Cc1cccc(Cl)c1)C(=O)c1ccccc1S2=O)N1CCN(c2cccc(C(F)(F)F)c2)CC1 (stereo not drawn),-24%,?
CCOc1ccc(CC(=O)NCC(=O)NCc2cc(=O)n(C)c(=O)n2C)cc1,-5%,-13%
CN1CN=C(N[N+](=O)[O-])N(Cc2ccco2)C1,-11%,i
COc1ccc(NC(=O)CSc2nnc(Cn3cnc4ccccc43)n2C)cc1,-4%,·
COc1ccc(CNC(=O)c2ccc(C(C)C)cc2)cc1,-15%,i
Cc1ccc(S(=O)(=O)N2CCCCC2)cc1NC(=O)c1ccncc1,-7%,i
COC(=O)CSc1nnc(CNS(=O)(=O)c2ccc(Br)cc2)n1C,-8%,-6%
CCOC(=O)c1cnc(SCCN2CCOCC2)nc1N,-7%,i
CCCCN1C(=O)C(C(=O)OCC)CC2=C1CCCC2=O (stereo not drawn),7%,-13%
CN(Cc1ccccc1)C(=O)c1[nH]cnc1C(=O)N[C@@H](Cc1ccccc1)C(=O)OCc1ccccc1,-7%,i
CC(C)c1ccc(OCC(=O)N(Cc2ccco2)C2CCS(=O)(=O)C2)cc1 (stereo not drawn),-8%,i
COc1cccc(C2CC(=O)Nc3c2c(=O)n(C)c2nc4ccccc4n32)c1 (stereo not drawn),7%,-1%
CCc1ccc(CNC(=O)C2CCN(C(=O)c3ccc(-n4c(C)cc5ccccc54)s3)CC2)cc1,?,?
NS(=O)(=O)c1ccc(NC(=S)NC(=O)c2ccc(-c3ccccc3)cc2)cc1,?,-22%
COc1cccc(CNCc2ccc(SC)cc2)c1OC,-17%,-7%
CCOc1cc(C(C(=O)NCC2CCCO2)N(C(=O)Cn2nnc3ccccc32)c2cccc(OC)c2)ccc1O (stereo not drawn),1%,-14%
COc1ccc(Nc2nc(C)nc3c2oc2ccccc23)cc1,-10%,-31%
Cc1nc(-c2cc(-c3nc(-c4ccc(C(F)(F)F)cc4)no3)no2)cs1,-4%,i
CCNC(=O)C1CCCN(C(=O)c2ccc(C(F)(F)F)cc2)CC1 (stereo not drawn),6%,13%
COC(=O)c1ccccc1-n1cc2c(c1-c1cccc(C)c1)c(=O)n(C)c(=O)n2C,-17%,-15%
O=C(C(O)c1ccccc1)N1CCN(S(=O)(=O)c2ccc(F)c(F)c2)CC1 (stereo not drawn),-23%,-25%
CC(C)NC(=O)Nc1ccc2c(c1)C(=O)N([C@H](C)CO)C[C@H](C)[C@@H](CN(C)S(=O)(=O)c1cn(C)cn1)O2,-9%,i
COc1cccc(NC(=O)CC(=O)Nc2ccc3nc4n(c(=O)c3c2)CCCCC4)c1,-9%,-9%
O=C(NCCOc1ccccc1)c1ccccc1F,-16%,-11%
CCOC(=O)c1c(C)[nH]c(C)c1S(=O)(=O)N1CCC(C(=O)N2CCN(c3cccc(Cl)c3)CC2)CC1,?,?
CCc1ccc(-c2cc(C(=O)Nn3cnnc3)c3ccccc3n2)cc1,-5%,-14%
COc1ccc(-c2cc(C)no2)cc1S(=O)(=O)NCc1cccc(C)c1,-16%,-28%
